Screening results (PubChem BioAssay)
NPR1 antag: human Npr1 receptor antagonism. P16066. HEK293 hNpr1 GloSensor cGMP, ANP-stimulated luminescence. Potency, µM (titrated, usually from 46.3 µM), for inactives: at the top dose activity change, negative = inhibition, actives largely listed as inhibitors. hit rate 1.6% among 76,000; active = well fitted inhibition curve with a large enough effect; inconclusive = small, poorly fitted or top-dose-only effect; inactive = no such curve, though single readings can be large or run the other way;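 note: nearly all actives have a fitted effect of over 60% in size; nearly all hits also lower the signal before the agonist is added; a reference antagonist and vehicle were the controls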
Target sequence (P16066 whole entry, looked up): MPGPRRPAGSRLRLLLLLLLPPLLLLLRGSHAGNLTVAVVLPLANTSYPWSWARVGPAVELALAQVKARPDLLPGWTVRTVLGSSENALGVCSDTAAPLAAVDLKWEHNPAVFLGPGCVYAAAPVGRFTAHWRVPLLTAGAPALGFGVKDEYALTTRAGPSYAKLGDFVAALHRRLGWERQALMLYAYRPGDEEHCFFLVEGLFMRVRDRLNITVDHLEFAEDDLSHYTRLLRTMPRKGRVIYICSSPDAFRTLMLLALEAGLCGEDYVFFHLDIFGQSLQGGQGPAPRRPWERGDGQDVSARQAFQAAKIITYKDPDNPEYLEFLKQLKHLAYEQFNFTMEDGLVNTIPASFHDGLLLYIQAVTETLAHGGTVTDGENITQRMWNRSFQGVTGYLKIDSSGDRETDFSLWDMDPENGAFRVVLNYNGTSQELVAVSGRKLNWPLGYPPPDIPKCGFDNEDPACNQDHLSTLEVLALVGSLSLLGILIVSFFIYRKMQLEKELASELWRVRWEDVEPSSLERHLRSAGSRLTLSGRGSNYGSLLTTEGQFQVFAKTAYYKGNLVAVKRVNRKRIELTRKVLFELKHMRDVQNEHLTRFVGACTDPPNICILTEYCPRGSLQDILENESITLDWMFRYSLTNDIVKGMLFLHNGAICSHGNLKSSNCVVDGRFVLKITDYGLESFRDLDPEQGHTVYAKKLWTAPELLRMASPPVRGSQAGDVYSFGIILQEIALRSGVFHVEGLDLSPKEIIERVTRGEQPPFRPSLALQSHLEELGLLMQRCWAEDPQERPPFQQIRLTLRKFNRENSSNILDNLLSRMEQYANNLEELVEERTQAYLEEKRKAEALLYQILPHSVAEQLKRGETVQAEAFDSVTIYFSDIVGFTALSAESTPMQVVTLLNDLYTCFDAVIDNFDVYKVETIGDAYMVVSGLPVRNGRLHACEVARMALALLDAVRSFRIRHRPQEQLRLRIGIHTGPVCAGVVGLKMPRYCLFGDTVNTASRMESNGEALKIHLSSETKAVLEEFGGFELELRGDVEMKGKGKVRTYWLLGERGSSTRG
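Compound pre-incubated 30 min at room temperature on GloSensor-loaded HEK293 cells stably carrying hNpr1 and the pGS-40F cGMP biosensor. Stimulation uses hNppA at 0.1 nM final; luminescence is taken at baseline and 20 min post-agonist.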
* = called active by the depositor; u = inconclusive; [ ] = remark or other dose. % is set by controls: 0 for no effect and ±100 for the full control effect; potency is the fitted concentration of half-maximal effect. An excerpt; the hit share may differ from the screen's.

SMILES	NPR1 antag
COc1ccc(Nc2ccc3c(n2)CN(Cc2ccccc2)C(=O)CO3)cn1	-24%[70.6 µM]
O=C(Nc1ccccc1)[C@@H]1C[C@H](c2ccc(F)cc2)N([S+](=O)([O-])C2CC2)C1	-11%[70.6 µM]
COc1ccc(-c2nc(CN3CC[C@H]4CC[C@@H](C3)N4)c(C)o2)c(OC)c1C	-1%
CCn1cc(C(=O)N2C[C@@H](CO)[C@H](c3ccccn3)C2)cn1	3%
CCCN(CC1CC1)C(=O)c1c(OCC2CC2)cc(=O)n2c1CCCCC2	3%
COc1ccc(-c2noc(CC3CCN(C(=O)Cc4ccsc4)CC3)n2)cc1	u
Cn1ccc(NC(=O)c2ccc3c(c2)NC(C)(COc2ccccc2)CO3)n1 (stereo not drawn)	u
CN1CCC(OC2CCN(C(=O)COc3ccc(Cl)cc3)CC2)CC1	0%
Cc1ccc(S(=O)(=O)N2CCCC(CCC(=O)NCCCc3ccccc3)C2)cc1 (stereo not drawn)	-6%
CCOc1cc(=O)n2c(c1C(=O)N1CCCc3ccccc31)CCCC2	-10%
O=C1C(N2CCN(S(=O)(=O)c3ccc(F)c(F)c3)CC2)CCN1Cc1cccnc1 (stereo not drawn)	u
O=C(NCCC1=CCCCC1)C1CCN(C(=O)c2ncn3c2COC(c2ccc(Cl)cc2)C3)CC1 (stereo not drawn)	-2%
CC(=O)NC1(C)CCN(Cc2ccc(-c3ccc4c(ccn4C)c3)cc2)C1 (stereo not drawn)	u
CC(C)CNC(=O)c1cc2cn(C3CC3)cc2s1	-2%
Cc1noc(C)c1CN1CCNc2cnc(OCc3cccnc3)cc2C1	-18%[70.6 µM]
O=C(O)COCC(=O)N[C@H]1CCN2C(=O)c3cc(-c4ccc5c(c4)OCO5)ccc3NC(=O)[C@H]12	0%
O=C(Cc1ccccc1F)N1CCC(CCOc2ccccc2)C1 (stereo not drawn)	-20%
COc1ccc(-c2noc([C@@H]3CCCN3C(=O)c3ccc(F)cc3Cl)n2)cc1	u
CCn1c(=O)c2ccnn2c2ccc(C(=O)NC3CCCCC3)cc21	2%
COCCN1CCCC2(CCN(C(=O)CCc3ccc(C)cc3)C2)C1=O (stereo not drawn)	10%
CN(CCCn1ccnc1-c1cnc[nH]1)c1ccccc1	2%
Cc1cccc(-n2cc(CN3CC[C@H](CO)[C@@H](O)C3)cn2)c1	8%
O=C(CCc1nnn2c1CN(S(=O)(=O)c1ccccc1)CC2)NC1CC1	1%
Cn1nc(C(=O)N2CCC3(CC2)CC(CO)N(C(=O)c2ccccc2)C3)c2ccccc21 (stereo not drawn)	-5%
COc1cccc(NC(=O)CN2C(=O)NC3(CCS(=O)(=O)CC3)C2=O)c1	4%
CCCNc1cc(N2CCC(CCC(=O)NCCN3CCCCCC3)CC2)ncn1	-2%
CCC[C@H]1CN(C(=O)c2cc(F)ccc2OC)C[C@@H]1N	0%
CCS(=O)(=O)N1CC(C(=O)NCCc2ccncc2)C2(CCOCC2)C1 (stereo not drawn)	-1%
COc1ccc(OC)c(CNC(=O)c2nnn3c2COC(c2ccc(F)cc2)C3)c1 (stereo not drawn)	-20%
CC(=O)Nc1ccc(C2(C(=O)NCc3ccc(C)cc3)CCC2)cc1	0%
O=C(c1ccccc1F)N1C[C@@H](COCC2CC2)[C@H](c2ccccn2)C1	2%
COc1cc(Cl)ccc1C(=O)N1CCN(c2cc(-c3cccs3)[nH]n2)CC1	11µM*
C[C@H]1[C@@H]2[C@@H](O)[C@H]([C@H](C)C(=O)N3CCOCC3)CC[C@@]2(C)CC[C@@H]1NC(=O)c1cncnc1	1%
COc1ccc(-c2noc(-c3nc(-c4ccccc4F)no3)n2)cc1OC	1%
Cc1ccc(NC(=O)Cn2c(N3CCC(C)CC3)nc(C)cc2=O)cc1	u
O=C(c1ccoc1)N1CCC(Cc2nc(-c3ccncc3)n[nH]2)C1 (stereo not drawn)	2%

7 structures from above, ordered by count of non-hydrogen atoms, falling.
SMILES	NPR1 antag
C[C@H]1[C@@H]2[C@@H](O)[C@H]([C@H](C)C(=O)N3CCOCC3)CC[C@@]2(C)CC[C@@H]1NC(=O)c1cncnc1	1%
CCCNc1cc(N2CCC(CCC(=O)NCCN3CCCCCC3)CC2)ncn1	-2%
COc1cc(Cl)ccc1C(=O)N1CCN(c2cc(-c3cccs3)[nH]n2)CC1	11µM*
O=C(c1ccccc1F)N1C[C@@H](COCC2CC2)[C@H](c2ccccn2)C1	2%
CC(=O)Nc1ccc(C2(C(=O)NCc3ccc(C)cc3)CCC2)cc1	0%
O=C(c1ccoc1)N1CCC(Cc2nc(-c3ccncc3)n[nH]2)C1 (stereo not drawn)	2%
CCC[C@H]1CN(C(=O)c2cc(F)ccc2OC)C[C@@H]1N	0%

(cont.)
SMILES	NPR1 antag
O=C(c1ccncc1)N1CCC(Cc2noc(-c3ccccc3)n2)C1 (stereo not drawn)	-22%
COCCC(=O)N1CCCCCC1c1nnc(-c2ccccc2)o1 (stereo not drawn)	9%
Cc1cccc(-c2nocc2CCC(=O)NCc2cccs2)c1	1%
CC1CCC(NC(=O)CN2C(=O)NC3(CCC(C)CC3)C2=O)CC1 (stereo not drawn)	6%
O=C1N[C@H](CC(=O)N2CCC(c3ccccc3)C2)C(=O)Nc2ccccc21 (stereo partly drawn)	6%
O=C(N[C@H]1CCOC[C@H]1C1CCOCC1)c1cccc2nccnc12	1%
COc1ncccc1-c1cnc2n[nH]c(-c3ccccc3)c2n1	-17%[70.6 µM]
Cc1cn2nc(C(=O)NCc3ccc(Br)cc3)cc2c(N2CCCC2)n1	12%
CC(C)CCNC(=O)N1CCCC(c2noc(COc3ccccc3)n2)C1 (stereo not drawn)	-30%
COc1ccc(NC(=O)CCn2ccn3nc4c(c3c2=O)CCCC4)cc1OC	-13%
O=C1c2c(nc(CNCc3ccccc3)n2Cc2ccccc2)NCCN1CC1CC1	-10%[70.6 µM]
CN(C)C[C@@H]1CN(Cc2ccncc2)C[C@H]1NC(=O)c1ccc2c(c1)OCO2	3%
Cc1ccccc1CN1CCOc2cc([S+](=O)([O-])N(C)C)ccc2C1	u
Cc1cc(C)c(S(=O)(=O)NCCn2c(C)cnc2C2CC2)cc1C	-3%
CN(Cc1ccc(F)cc1)c1ccc2ncc(Nc3cccc(O)c3)n2n1	u
CC(C)C(=O)N[C@@H]1C[C@H](COc2ccc(S(C)(=O)=O)cc2)[C@@H](O)[C@H]1O	3%[70.6 µM]
CCOc1ccccc1CNC(=O)c1cc2cn(C(C)C)cc2s1	-19%
c1ccc2oc([C@H]3CCN(C4CCOCC4)C3)nc2c1	-3%[70.6 µM]
CCOc1ccc(C(=O)N2[C@@H]3CC[C@H]2CC(NC(=O)c2cnc(C)cn2)C3)cc1OCC (stereo partly drawn)	2%
CC(C)CNC(=O)N1CCCC(c2noc(COc3ccccc3)n2)C1 (stereo not drawn)	-18%
CCCC(=O)Nc1ccc2c(N3CCOCC3)ncnc2c1	4%
CN(C)CCNC(=O)c1cc2cn(C3CC3)cc2s1	5%
O=C(COc1ccc(Cl)cc1)N1CC2CC(C1)[C@H]1CCCC(=O)N1C2 (stereo partly drawn)	-1%
O=C(NCCN1CCOCC1)C1CN(S(=O)(=O)c2cccnc2)CC12CCCCC2 (stereo not drawn)	4%

Fetched by structure from the list above:
SMILES	NPR1 antag
CCOc1ccccc1CNC(=O)c1cc2cn(C(C)C)cc2s1	-19%
Cc1cccc(-n2cc(CN3CC[C@H](CO)[C@@H](O)C3)cn2)c1	8%
O=C(c1ccncc1)N1CCC(Cc2noc(-c3ccccc3)n2)C1 (stereo not drawn)	-22%
O=C1N[C@H](CC(=O)N2CCC(c3ccccc3)C2)C(=O)Nc2ccccc21 (stereo partly drawn)	6%
CC(=O)Nc1ccc(C2(C(=O)NCc3ccc(C)cc3)CCC2)cc1	0%
COc1ncccc1-c1cnc2n[nH]c(-c3ccccc3)c2n1	-17%[70.6 µM]

Next section.
SMILES	NPR1 antag
Cn1cnc(S(=O)(=O)N2CCC3(CC2)CC(CC(=O)NC2CC2)CCO3)c1 (stereo not drawn)	2%
O=C(Nc1ccccc1)N1CCOC(CN(CC2CC2)C(=O)c2cccc(F)c2)C1 (stereo not drawn)	-16%
CCN1C(=O)CCN(C(=O)Nc2ccc(C)c(C)c2)CC12CCOCC2	-2%
COc1ccccc1-c1cnc(Nc2ccccc2)c2c1CCO2	-23%[70.6 µM]
O=C1CCN(C(=O)Nc2ccccc2F)CCCC(C(=O)NCc2ccncc2)CCN1 (stereo not drawn)	6%
CC(=O)N1CCC(C(=O)N2CCN3C(=O)c4cc(-c5ccc6c(c5)OCO6)ccc4NC(=O)[C@H]3C2)CC1	2%
O=C1C(N2CCN(S(=O)(=O)c3ccccc3)CC2)CCN1CCc1ccccc1 (stereo not drawn)	0%
COc1ccc(CN2C[C@@H](C(N)=O)[C@H](c3nc(C)no3)C2)cc1Cn1ccnc1	3%
Cc1ccc(N2CC(c3noc(-c4cccc(C)c4)n3)CC2=O)cc1 (stereo not drawn)	1%
COc1cc(C)c(-c2nc(CN3CCOC(CCN)C3)c(C)o2)cc1C (stereo not drawn)	1%
O=C(CCc1cccc(F)c1)N1CCN(Cc2ccccc2)CC(O)C1 (stereo not drawn)	3%
CCCNc1cc(N2CCC(CCC(=O)NCc3cccc(OC)c3)CC2)ncn1	-20%
COCCN1C(=O)c2ccccc2C(C(=O)NCCc2ccc(OC)cc2)C12CCCC2 (stereo not drawn)	3%
Cc1cc2nc3n(c(=O)c2n1CC(=O)Nc1cccc(Cl)c1)CCCCC3	-16%
O=C(c1cccc2[nH]ccc12)N1CCC2(CC1)N(Cc1cccc(F)c1)C(=O)CS2=O (stereo not drawn)	-1%
c1cc(-c2cc(-c3ccc(N4CCOCC4)nc3)cn3cncc23)ccn1	-11%[70.6 µM]
COc1ccc(CN2CC3(C2)C(=O)N(Cc2ccc(C)o2)C(=O)[C@@H]2C[C@@H](O)CN23)c2ccccc12	-3%
CN(Cc1ccc2ncccc2c1)C(=O)c1ccc(C2CCNC2)cc1 (stereo not drawn)	0%
CN1CC(=O)N(c2ccc(Cl)cc2)Cc2c(NCCCc3ccccc3)ncnc21	-21%
COCc1nc(CCNC(=O)COc2ccc(F)cc2)no1	0%
COc1ccccc1NC(=O)Cn1cccc1-c1nc(-c2ccc(F)cc2)no1	-1%
OC1(c2csc(CN3CCOCC3)n2)CCN(Cc2ccccc2F)CC1	0%[70.6 µM]
CC(C)C[C@@H]1N[C@H](C(=O)NCc2ccccc2)Cc2cn(Cc3ccncc3)c3cccc1c23	-5%
COc1cccc(CCC2CCCN(C(=O)c3ccsc3)C2)c1 (stereo not drawn)	1%
O=C(Cn1ccn2nc(-c3ccccc3)c(CO)c2c1=O)Nc1ccc(Br)cc1	-11%
Cn1ccnc1CNC(=O)C[C@@H]1C[C@H]2O[C@H](CNCc3cnccc3Cl)[C@@H](O)[C@H]2O1	5%
CN1C(=O)CS(=O)(=O)C12CCN(C(=O)c1cccc(F)c1)CC2	-7%
O=C(c1noc2c1CCCC2)N1CCN(c2cccc(Cl)c2)C(=O)C1	5%
O=C(C[C@@H]1CCNC[C@@H]1Cc1cc(COc2ccccc2)on1)NCc1cccs1	-13%[70.6 µM]
O=C(CCn1ccc(=O)[nH]c1=O)N1CCc2nc(-c3ccccc3)[nH]c2C1	0%
COc1ccc(C(=O)N2CC[C@@H](CC(=O)O)[C@@H](CCN(CCN3CCOCC3)c3ccccc3)C2)cc1	-1%
Clc1cc(NCCc2ccccn2)n2nccc2n1	-6%[70.6 µM]
Cc1ccc(-n2c(C3CCN(C(=O)c4ccc(C#N)cc4)CC3)n[nH]c2=O)cc1	8%
O=C(c1ccccn1)N1CCn2c(nnc2C2CCCNC2)C1 (stereo not drawn)	12%[70.6 µM]
CCN(CCn1cccn1)Cc1cnc(S(=O)(=O)Cc2ccccc2)n1CC(C)C	6%
Cc1nc(C)c(C(=O)N2CCc3onc(-c4cccc(F)c4)c3C2)s1	5%
CCCc1nnc(C[C@@H]2C[C@@H](C(C)C)[C@H](CO)C=C2C)o1	0%[70.6 µM]
COCCc1nncn1C1CCN(C(=O)c2ccc(Br)cc2)CC1	1%
Cn1cnc(S(=O)(=O)N2C[C@@H](Oc3cccnc3)C[C@@H]2C(=O)N2CCOCC2)c1	6%
COCC1CN(C)CC12CCN(C(=O)c1cc(C)cc(C)c1)CC2 (stereo not drawn)	-2%
COCCNC(=O)[C@@H]1C[C@@H](O)CN1C1CCN(C(=O)CC2CCCCC2)CC1	-13%
COc1cccc2c1OCC(CNC(=O)CCN1Cc3ccccc3C1=O)C2 (stereo not drawn)	-1%
c1cn(-c2ccc(-c3nc(C4CCOC4)no3)cc2)cn1 (stereo not drawn)	-1%
COCCn1c(C)cnc1C1CCN(S(=O)(=O)c2ccc(C#N)cc2)C1 (stereo not drawn)	-4%
CCOCCNc1ncnc2c1CN(C1CCC1)C(=O)CN2C	-20%[70.6 µM]
O=C(c1cocn1)N1C[C@@H](COc2ccncc2)[C@H](c2ccccn2)C1	4%
COc1ccc(CC(=O)Nc2ccc3n(c2=O)C[C@H]2C[C@@H]3CN(C(=O)c3ccc(-c4ccccc4)cc3)C2)cc1	-1%
COc1ccc(Cn2c(C3CCN(C(=O)Cc4ccc(F)cc4)CC3)n[nH]c2=O)cc1	-2%
CC(C)NC(=O)N[C@H]1C[C@H]2C(=O)NC[C@@H](CCC(=O)N3CCOCC3)N2C1	4%[70.6 µM]
O=C(O)C1CC2(CCN(C(=O)NCc3ccccc3F)CC2)CN1 (stereo not drawn)	16%
